RGS16-Gao HTS – modulators of RGS16 binding to Galphao, primary screen, biochemical, human proteins, multiplexed bead flow cytometry | Regulator of G-protein signaling 16 (Homo sapiens) + Guanine nucleotide-binding protein … | bead-based flow cytometry RGS16-Galphao binding, fluorescence; actives lie on both sides | binding response (% of control), % at 10 µM | 220,000 tested, 0.38% active;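 active = below 25% or above 175%, edge rows of some plates excepted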;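 note: Galphao activated by GDP with aluminum fluoride before binding; 100% = wells without compound and 0% = beads without RGS; some results beyond the cut were filed as inactive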
HSV replic up – enhancers of HSV replication in host cells, fold increase, host cell viability | HSV replication augmentation in cells | maximum fold increase | 220,000 tested, 0.005% active;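 active = peak rise of 1.5-fold or more in the series; tested in PC3 cells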;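 note: first round at 10 µM; read as green reporter fluorescence; hits show the peak of a series up to 25 µM; 1 = signal of infected wells without compound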
PKD1 inh – inhibitors of human PKD1 kinase, biochemical, fluorescence polarization; Serine/threonine-protein kinase D1 (Homo sapiens), Q15139; PKD1 kinase fluorescence polarization assay; inhibition, %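 (about 10 µM by stock and volumes)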; 200,000 tested, 0.056% active; AID 797, 2007;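 active = inhibition of 50% or more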;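 note: controls were vehicle for no effect and a reference inhibitor for full effect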
Target sequence (Q15139 whole entry, looked up): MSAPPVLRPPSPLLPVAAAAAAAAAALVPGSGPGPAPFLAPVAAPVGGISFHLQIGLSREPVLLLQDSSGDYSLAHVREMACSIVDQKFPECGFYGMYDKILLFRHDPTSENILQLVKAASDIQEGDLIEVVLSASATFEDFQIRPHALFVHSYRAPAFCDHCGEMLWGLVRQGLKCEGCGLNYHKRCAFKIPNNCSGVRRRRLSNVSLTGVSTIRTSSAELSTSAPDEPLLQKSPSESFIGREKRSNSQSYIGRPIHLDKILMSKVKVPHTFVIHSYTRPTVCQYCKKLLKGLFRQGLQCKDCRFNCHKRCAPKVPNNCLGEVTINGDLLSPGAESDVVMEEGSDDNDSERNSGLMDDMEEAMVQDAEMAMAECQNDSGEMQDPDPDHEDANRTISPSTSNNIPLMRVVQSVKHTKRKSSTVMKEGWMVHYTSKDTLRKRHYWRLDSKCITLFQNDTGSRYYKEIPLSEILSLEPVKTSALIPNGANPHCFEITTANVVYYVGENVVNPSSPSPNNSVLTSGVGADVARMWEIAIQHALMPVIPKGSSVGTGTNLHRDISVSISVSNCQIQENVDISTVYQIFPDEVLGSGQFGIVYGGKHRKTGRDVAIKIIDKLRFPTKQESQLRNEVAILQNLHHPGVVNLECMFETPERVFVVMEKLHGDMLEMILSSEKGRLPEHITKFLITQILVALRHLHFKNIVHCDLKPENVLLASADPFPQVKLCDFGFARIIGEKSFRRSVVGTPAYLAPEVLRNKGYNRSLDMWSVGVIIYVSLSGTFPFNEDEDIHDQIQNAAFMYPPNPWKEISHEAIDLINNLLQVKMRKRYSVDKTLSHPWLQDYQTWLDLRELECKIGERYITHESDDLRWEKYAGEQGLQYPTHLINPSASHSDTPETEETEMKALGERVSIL
Insulin prom inh – inhibitors of insulin promoter-driven GFP, primary screen, imaging, TRM-6 cells (human fetal islet line), eGFP reporter, cell count | reporter expression induced with tamoxifen | inhibition, % at 2 µM | 130,000 tested, 0.9% active | AID 1273, 2008;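 active = inhibition above the mean plus 3 SD, with well images judged a real hit on visual review, cut at about 60% in these data, passing the limit was not always enough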
GALR2 agonist – GALR2 receptor agonists, primary screen, cell-based | AID 803, 2007 | GALR2-expressing cells, agonist activation read-out | Galanin receptor type 2 (Homo sapiens), O43603 | 140,000 tested, 0.48% active | activation, %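 (tested at 5 µM)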;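 active = above mean plus 3 SD of all compounds, about 5% in these data, not always enough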;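 note: 0% = vehicle buffer wells and 100% = reference agonist at full effect; tested in CHO reporter cells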
Insulin prom inh cell count – also measured in Insulin prom inh; calls as there; normalized cell count, %; measured here: cell count, toxicity; reference of the scale not given here;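 cells exposed to compound for 48 h; stained nuclei by imaging scaled within each plate; lower means fewer cells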
HSV replic up primary fold – also measured in HSV replic up; calls as there; fold increase; compound at 10 µM; measured here: primary screen fold increase 10 uM; tested in PC3 cells;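 GFP signal in the first replicate; 1 = infected wells without compound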
* marks the source's active call; other numbers are inactive results; i = inactive; nt = no result given.

SMILES	RGS16-Gao HTS	HSV replic up	HSV replic up primary fold	PKD1 inh	Insulin prom inh	Insulin prom inh cell count	GALR2 agonist
COC(=O)c1ccc(Oc2coc3cc(OCc4cnn(-c5ccccc5)c4)ccc3c2=O)cc1	96.0	i	1.02	-0.5	2.3	67.9	0.6
Cc1ccccc1Nc1c(-c2ccncc2)nc2ccc(Br)cn12	104.9	i	0.63	1.9	0.0	126.7	0.7
COc1ccc2[nH]c(=O)c(CN(CCc3ccccc3)C(C)=O)cc2c1	99.1	i	0.94	-6.1	34.3	108.3	-0.9
CCN(CC)CCNc1c2c(c(C#N)c3nc4ccccc4n13)CCCC2	109.4	i	1.13	-7.4	0.0	65.1	0.1
CCOC(=O)C1=C(N)OC2=C(C(=O)CC(C)(C)C2)C1c1ccoc1 (centres undefined)	99.9	i	0.94	-0.5	63.0	165.9	-1.0
Cc1ccnc2c(N3C(=O)C4C5C=CC(C5)C4C3=O)cccc12 (centres undefined)	103.6	i	0.98	-5.6	-14.3	74.9	-1.8
CCC(=O)N1CCN(c2ccc(Cl)cc2NC(=O)Cc2ccccc2)CC1	98.8	i	0.96	-9.2	-312.5	97.2	-1.8
O=C(CSc1cccc[n+]1[O-])CSc1cccc[n+]1[O-]	100.2	i	0.94	-0.9	nt	nt	nt
C/C(CC(=O)Nc1cc(Cl)ccc1C)=N\NC(N)=O	98.5	i	1.03	nt	nt	nt	nt
O=C(c1cc2cc([N+](=O)[O-])ccc2s1)N1CCOCC1	114.0	i	0.96	-1.1	-17.6	84.8	nt
O=S(=O)(c1cc(Cl)ccc1Br)N1CCCCC1	108.4	i	1.45	-5.1	36.4	103.6	-0.6
O=C(NC1CCCC1)C(c1c[nH]c2ccccc12)N(C(=O)Cn1nnc(-c2ccc(Cl)cc2)n1)c1ccccc1 (centres undefined)	98.9	i	0.82	-0.1	-34.1	115.0	-0.6
CC(C)C(O)C1CCN(Cc2nc(Cc3ccccc3Cl)no2)CC1 (centres undefined)	105.0	i	1.02	-0.4	nt	nt	nt
COc1c(C)cc(C(=O)C2CCCN(Cc3cccc4nccnc34)C2)cc1C (centres undefined)	113.5	i	0.86	7.0	nt	nt	nt
O=C(COc1cccnc1[N+](=O)[O-])NCc1ccco1	106.0	i	0.96	2.4	nt	nt	nt
COc1ccc(-c2nc3ccccc3s2)cc1	96.0	i	0.98	-2.2	-20.0	124.9	nt
O=C1CCCC2=C1C(c1cccs1)CC(=O)N2c1ccc(F)cc1 (centres undefined)	100.5	i	1.01	-3.5	nt	nt	nt
COc1ccc(/C(C)=N\n2cnnc2)cc1	98.5	i	0.93	-9.9	-18.2	147.1	0.0
C=C(C)C(=O)Nc1cccc(C(C)=O)c1	95.8	nt	nt	3.4	0.0	104.1	-1.0
CCC(=O)Nc1ccc(S(=O)(=O)c2ccc(NC(=O)CC)cc2)cc1	98.4	i	0.98	2.4	37.0	123.6	-0.8
c1ccc(CSc2nnc(Cc3ccccn3)o2)cc1	102.3	i	0.87	0.2	64.3	112.3	-3.7
COc1cccc(C=N[C@@H](CO)[C@@H](O)c2ccc([N+](=O)[O-])cc2)c1O	96.7	i	1.01	nt	nt	nt	nt
Cc1cc(Br)ccc1SCC(=O)OCC(=O)NC1CCCC1	109.3	i	0.91	-3.9	25.0	107.5	nt
O=C(NCc1ccco1)C(=O)NCC(c1ccco1)N1CCOCC1 (centres undefined)	100.4	i	0.9	-0.3	nt	nt	nt
Cc1ccc(CC(=O)Nc2ccccc2-c2ccccc2)cc1C	196.2	i	0.94	-6.8	-3.9	62.9	0.0
Cn1cccc1-c1nc2ccc(NC(=O)c3ccc([N+](=O)[O-])cc3)cc2[nH]1	112.7	i	0.9	0.3	nt	nt	-0.2
N/C(=N/OC(=O)c1ccccc1Cl)c1ncc([N+](=O)[O-])s1	95.8	i	0.66	nt	nt	nt	nt
CC(C)CCNC(=O)C1CC(c2cccc(F)c2)=NO1 (centres undefined)	100.1	i	0.78	nt	nt	nt	nt
Cc1cc(OCC(=O)NC(C)C)cc(C)c1Cl	88.0	i	1	-9.4	8.1	81.6	-2.0
CC(/C=C/c1ccc2c(c1)OCO2)=N/NC(=O)c1cccnc1	104.5	i	0.81	2.5	nt	nt	-0.4
COc1ccccc1NC(=O)/C=C1\NC(=O)CS1	104.3	i	0.93	-0.7	-58.3	113.6	nt
CS(=O)(=O)N(CC(=O)Nc1cccnc1)c1ccc2c(c1)OCCO2	139.9	i	0.93	3.2	55.0	102.6	-1.3
CC(=O)c1cc(C#N)c(NCc2cc(-c3ccccc3)no2)nc1C	108.6	i	0.8	6.8	-27.3	159.7	nt
Cc1cc(/C=N/NC(=O)c2ccccn2)c(C)n1-c1cccc([N+](=O)[O-])c1	101.3	i	0.93	-2.4	nt	nt	nt
COc1cccc(/C(O)=C2\C(=O)C(=O)N(c3ccccn3)C2c2ccccc2OC)c1 (centres undefined)	89.1	i	1.04	6.7	-42.9	144.1	-1.3
Cc1ccccc1CSCC(=O)c1c(N)n(C)c(=O)n(C)c1=O	96.8	i	0.64	-4.7	34.2	43.8	1.0
CCOC(=O)c1ccc(N2CSC3=C(C#N)C(c4ccc(OC)cc4OC)CC(=O)N3C2)cc1 (centres undefined)	101.9	i	1.17	-13.2	nt	nt	-2.7
CCc1cccc(CC)c1NC(=S)NCC(c1cccnc1)N(C)C (centres undefined)	94.3	i	0.94	-4.0	-26.7	98.4	nt
CC(C)Cn1c(CN(Cc2ccccc2)Cc2ccccc2)nc2c1c(=O)n(C)c(=O)n2C	98.9	i	1.11	-4.4	nt	nt	1.6
COc1ccc(Cl)cc1NC(=S)N1CCC(c2ccc(C)cc2)C1 (centres undefined)	99.7	i	1.1	-0.8	nt	nt	nt
Nc1n[nH]c2cc(=O)n(-c3cccc(C(F)(F)F)c3)nc12	99.2	nt	nt	4.7	30.8	86.2	nt
COC(=O)c1ccc(NCC(=O)N2CCCCCC2)cc1	100.2	i	1.02	1.9	-18.5	107.8	nt
Cc1nn(CC(=O)NCc2cc3ccccc3[nH]2)c(C)c1[N+](=O)[O-]	105.5	i	1.1	0.3	16.1	83.5	-0.2
COc1ccc(S(=O)(=O)NN=C2CCCCC2)cc1	111.4	i	0.83	7.9	0.0	69.5	-1.3
Cn1c(NCc2ccccc2)nc2c1c(=O)n(Cc1ccc(Br)cc1)c(=O)n2C	88.3	i	0.98	-0.6	nt	nt	-1.5
COc1ccc(OC)c(Nc2nc3ccccc3n3cnnc23)c1	97.6	i	0.87	nt	nt	nt	nt
CC(C)N(Cc1nc(-c2ccc3c(c2)OCO3)no1)CC1CCC(=O)N1 (centres undefined)	105.6	i	1.02	-2.3	nt	nt	nt
CSc1ccccc1NC(=S)NC1CCCCC1	108.4	i	0.96	2.2	-36.4	132.1	nt
O=C(CN1CCN(Cc2ccccc2)CC1)NCCNc1ccc([N+](=O)[O-])cn1	113.3	i	0.96	-4.7	40.0	98.9	nt
CCOc1ccc2oc(C(=O)NCC(C)(C)CN(C)C)c(C)c2c1	99.1	i	0.87	0.3	nt	nt	nt
O=C(CN1C(=O)c2ccccc2S1(=O)=O)NCc1ccco1	107.9	i	1.06	3.2	nt	nt	nt
COc1ccc(Cn2c(-c3ccc(C)cc3)nc3c(c(=O)c4ccccc4n3C)c2=O)cc1	90.2	i	0.82	-9.1	18.9	100.0	5.1*
Cc1ccc(-n2c(SCC(=O)OC(C)C)nnc2-c2cnccn2)cc1	99.3	i	1.12	-8.3	21.4	103.0	0.2
COc1cc(CN2CC(=O)N(c3ccc(C)cc3)C2=S)cc(OC)c1OC	103.8	i	0.9	-9.5	8.1	136.9	-1.2
CCCNC(=O)c1ccccc1NC(=O)c1ccccc1SC	95.2	i	0.99	2.9	nt	nt	nt
COc1ccc(OCC(=O)NCCc2c[nH]c3ccccc23)cc1	108.8	i	0.93	9.1	-7.1	59.4	nt
C=CCn1c(C)cc(C(=O)CN2C(=O)c3ccccc3C2=O)c1C	100.8	i	1.02	5.0	nt	nt	-1.5
CCCCC(=O)Nc1cccc(-c2csc(-c3ccccc3)n2)c1	100.4	i	0.88	-4.1	6.7	118.6	-0.3
CN(C)CCCC(C)(O)C(C)(C)c1ccccc1 (centres undefined)	94.2	i	1.01	-1.7	-15.4	106.0	-1.4
CN1C(=O)NC(c2cccc(O)c2)C(C(=O)c2cccs2)C1(O)C(F)(F)F (centres undefined)	99.8	i	0.94	-1.2	nt	nt	-1.5

GALR2 agonist: hit marks shown above
SMILES,RGS16-Gao HTS,HSV replic up primary fold,PKD1 inh,GALR2 agonist
COc1ccc(Cn2c(-c3ccc(C)cc3)nc3c(c(=O)c4ccccc4n3C)c2=O)cc1,90.2,0.82,-9.1,5.1*

Next part:
SMILES	RGS16-Gao HTS	HSV replic up	HSV replic up primary fold	PKD1 inh	Insulin prom inh	Insulin prom inh cell count	GALR2 agonist
Fc1ccccc1CNC(=S)Nc1ccc(Cl)cc1	99.9	i	1.05	-0.8	-33.3	111.0	0.3
CCOC(=O)C1=C(C)NC2=C(C(=O)CCC2)C1c1coc2ccccc2c1=O (centres undefined)	98.7	i	0.98	-11.0	45.8	114.3	-2.4
Cc1ccc(C(O)CN2C3=NCCN3c3ccccc32)cc1 (centres undefined)	32.3	i	1.02	-10.7	-8.3	93.2	0.8
COc1c(C)cc(C(=O)C2CCCN(C(=O)c3ccc4[nH]ccc4c3)C2)cc1C (centres undefined)	108.1	i	0.92	-4.2	nt	nt	nt
CCc1cccc2c(C(=O)COC(=O)C3=NNC(=O)CC3)c[nH]c12	100.0	i	0.92	-6.3	nt	nt	nt
CC(=O)N(c1ccccc1)C1SC(=O)N(c2ccccc2)C1=O (centres undefined)	91.7	i	0.95	-12.5	18.2	112.8	-0.7
CN(CCc1cnn(C)c1)Cc1cn(C)nc1-c1ccccc1F	103.0	i	0.98	0.1	nt	nt	nt
CC(=O)c1ccc(-c2ccc(C(=O)NC3CCCCCC3)o2)cc1	106.5	i	0.66	-7.7	33.3	169.2	nt
Cc1cnc([N+](=O)[O-])n1CCOC(=O)NC(=O)c1cccc(F)c1	0.7	i	0.97	-4.5	-66.7	37.1	nt
CCC1CCCCN1CCCNC(=O)CCCOc1cc(=O)n(C)c2ccccc12 (centres undefined)	96.7	i	1.11	-1.7	20.0	75.5	nt
Cc1ccc(C(=O)NNC(=S)NC(=O)c2ccco2)cc1	96.8	i	0.95	-2.1	nt	nt	nt
Cc1ccc(SCc2nnc(NC(=O)c3ccccc3)s2)cc1	108.9	i	0.85	0.6	nt	nt	0.8
FC(F)(F)c1nc2ncc(Cl)cc2[nH]1	101.7	i	0.98	8.5	-78.1	56.8	-0.2
CCCNC(=O)NC(C)C12CC3CC(CC(C3)C1)C2 (centres undefined)	98.5	i	0.98	-5.1	-52.2	104.1	-2.5
O=[N+]([O-])c1ccc(NC(=S)NCCc2ccc(F)cc2)cc1	103.5	i	0.76	-11.8	nt	nt	-0.2
Cn1c(C(=O)OC(C(=O)NC2CCCCC2)c2ccncc2)cc2sccc21 (centres undefined)	105.9	i	0.75	14.7	-22.6	139.0	-3.0
COc1cccc(C(c2c(C)[nH]n(-c3ccccc3)c2=O)c2c(C)[nH]n(-c3ccccc3)c2=O)c1OC	104.6	i	0.94	-0.9	nt	nt	-0.2
O=C(CCCSc1nc2ccccc2[nH]1)N1CCN(c2ccccc2)CC1	116.0	i	0.87	-1.7	nt	nt	-1.1
Nc1nnc(CC(=O)NCc2ccccc2)s1	104.5	i	0.92	-6.1	-28.1	108.3	-2.4
O=C(Nc1cccs1)Nc1ccccc1Br	104.0	i	1.08	-1.4	nt	nt	nt

Full records, looked up by structure:
O=C1CCCC2=C1C(c1cccs1)CC(=O)N2c1ccc(F)cc1 (centres undefined) is listed as RGS16-Gao HTS = 100.5; HSV replic up = i; HSV replic up primary fold = 1.01; PKD1 inh = -3.5; Insulin prom inh = nt; Insulin prom inh cell count = nt; GALR2 agonist = nt
Nc1n[nH]c2cc(=O)n(-c3cccc(C(F)(F)F)c3)nc12 is listed as RGS16-Gao HTS = 99.2; HSV replic up = nt; HSV replic up primary fold = nt; PKD1 inh = 4.7; Insulin prom inh = 30.8; Insulin prom inh cell count = 86.2; GALR2 agonist = nt
O=C(CN1C(=O)c2ccccc2S1(=O)=O)NCc1ccco1 is listed as RGS16-Gao HTS = 107.9; HSV replic up = i; HSV replic up primary fold = 1.06; PKD1 inh = 3.2; Insulin prom inh = nt; Insulin prom inh cell count = nt; GALR2 agonist = nt
